Rango release inh – prevents RanGTP from dissociating the Rango-importin beta complex; O95149+P62826; Biochemical FRET Rango-importin beta, RanGTP-induced dissociation; Potency, µM (top dose mostly 46.1 µM), for the others: top-dose activity change, negative = inhibition; actives 0.071% (n = 340,000); active means falling FRET ratio curve, often poorly fitted, with flat reads before Ran was added; inconclusive means other falling curves, or compound fluorescence or quenching; inactive means flat or rising ratio curve;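 further: potency means the concentration at half of the fitted maximal effect; % of control where 0% means no effect; nearly all actives have a fitted effect of over 45% in size; -100% = wells without RanGTP and RCC1; the record marks most hits as doubtful in a second field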
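Quantitative HTS using a FRET biosensor: 0.1 uM Rango, 0.25 uM importin beta, 0.6 uM Ran, 2 mM GTP, 0.2 uM RCC1 final, PBS with DTT, Tween-20 and BSA. Post-read taken 45 min after Ran addition.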
miR-21 reporter – raises the signal of a miR-21 reporter. HeLa miR-21 FLuc reporter, luciferase, 48 h. Potency, µM (top dose mostly 38.3 µM), for the others: at the top dose reporter change, positive = more light. 340,000 tested, under 10 active. AID 2288; active = well fitted rising curve with a large enough effect; inconclusive = small, poorly fitted or top-dose-only effect; inactive = no such curve, though single readings can be large or run the other way;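 further: % of control where 0% means no effect; miR-21 action dims this reporter so a rising signal means less miR-21 action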
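Using DMEM plus 10% FBS, HeLa miR-21-FLuc cells are incubated with test compounds (final up to about 40uM) for 48 hours; firefly luciferase signal is then imaged following reagent-mediated lysis.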
Rango-impB inh – prevents formation of the Rango-importin beta complex. Q14974. Rango CFP/YFP FRET sensor + importin beta, 45 min. Potency, µM (doses to about 92.2 µM), for the others: at the top dose inhibition of complex formation. actives 0.031% (n = 340,000). AID 540263; active = rising FRET ratio curve, often small or poorly fitted; inconclusive = mostly compound fluorescence or quenching in the first reads; inactive = flat curves in all reads;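 further: potency means the concentration at half of the fitted maximal effect; 0% = DMSO wells and 100% = buffer wells lacking importin beta; nearly all actives have a fitted effect of over 15% in size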
Target sequence (Q14974 whole entry, looked up): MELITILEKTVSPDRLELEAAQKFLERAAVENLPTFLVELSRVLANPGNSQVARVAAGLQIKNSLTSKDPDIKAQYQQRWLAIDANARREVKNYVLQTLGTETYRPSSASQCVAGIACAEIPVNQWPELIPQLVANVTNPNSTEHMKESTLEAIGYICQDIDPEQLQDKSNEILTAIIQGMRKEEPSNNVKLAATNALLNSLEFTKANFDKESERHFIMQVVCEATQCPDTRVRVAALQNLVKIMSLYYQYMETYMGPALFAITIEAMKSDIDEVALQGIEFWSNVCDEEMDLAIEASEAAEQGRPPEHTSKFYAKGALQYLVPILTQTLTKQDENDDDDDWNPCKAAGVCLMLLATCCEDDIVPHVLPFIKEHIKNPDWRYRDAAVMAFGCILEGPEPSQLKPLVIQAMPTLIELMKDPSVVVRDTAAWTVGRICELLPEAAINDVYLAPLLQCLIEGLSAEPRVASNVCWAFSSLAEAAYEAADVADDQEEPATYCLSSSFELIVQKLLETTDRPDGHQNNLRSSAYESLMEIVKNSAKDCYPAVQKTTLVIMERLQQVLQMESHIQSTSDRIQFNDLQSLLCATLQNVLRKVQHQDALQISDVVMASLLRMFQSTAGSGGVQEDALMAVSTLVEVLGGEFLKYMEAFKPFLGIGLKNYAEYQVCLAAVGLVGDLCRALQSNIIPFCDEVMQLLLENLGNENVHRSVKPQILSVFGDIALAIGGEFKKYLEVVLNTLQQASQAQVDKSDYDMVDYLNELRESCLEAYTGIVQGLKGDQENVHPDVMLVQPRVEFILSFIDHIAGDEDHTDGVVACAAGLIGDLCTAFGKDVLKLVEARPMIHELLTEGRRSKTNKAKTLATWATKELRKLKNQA
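FRET biosensor (snurportin 1 IBB flanked by EYFP and cerulean), 50 nM, with compound 5 min, then 0.125 microM importin beta in PBS, 1 mM DTT, 0.02% Tween-20, 0.1% BSA. CFP/YFP ratio read after 45 min at room temperature; pre-read flags interference.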
GLA inh pH 4.5 – blocks human alpha-galactosidase A at pH 4.5; purified enzyme, 4-MU-alpha-Gal fluorescence, pH 4.5; activity change, negative = inhibition, % at 105 µM; 230,000 tested, under 10 active; AID 1467; inconclusive = small, poorly fitted or top-dose-only inhibition, or a rising curve; inactive = flat fitted curve, though single readings scatter; no compound was filed as active;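 further: 0% = full activity with enzyme and -100% = basal without enzyme; dose as in the result columns while the protocol names 77 µM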
Starred values were filed as active, the others as inactive; u = inconclusive; x = no result given. The list is partial, so the mix of outcomes need not match the whole.

mol | Rango-impB inh | GLA inh pH 4.5 | Rango release inh | miR-21 reporter
COc1ccccc1CNC(=O)[C@@H]1CCCN1S(=O)(=O)c1ccc(C)cc1 | 0.4% | -1 | -1% | 2%
COCc1c(C(=O)N2CCN(c3ccccc3C)CC2)oc2ccccc12 | u | x | -9% | x
COc1cccc(C(=O)C2CCCN(Cc3c(C)n(C)n(-c4ccccc4)c3=O)C2)c1 (stereo not given) | -0.9% | 9 | -16% | 0%
COCc1[nH][nH]c(=O)c1/C=N/N1CCOCC1 | -2.3% | 12 | 1% | -1%
CN1CCN(Cc2nc(Cc3ccccc3)no2)CC1c1ccccc1 (stereo not given) | 0.4% | 1 | -10% | -1%
CCN(CC(=O)Nc1c(F)cccc1F)C(=O)CCOc1ccccc1 | 0.0% | x | -9% | x
COc1ccc(C2=NN(c3ccc(C=O)cc3)C(c3ccccc3)C2)cc1 (stereo not given) | u | x | u | 9%
CCCCCSc1nc2c(cnn2-c2ccccc2)c(=O)[nH]1 | -1.3% | -4 | 0% | -10%
COc1ccc(OC(=O)c2ccc(OC)c(S(=O)(=O)N3CCOCC3)c2)cc1 | -0.6% | x | 26% | -1%
O=C(COC(=O)/C=C/c1cccs1)NC1CC1 | 5.1% | 0 | 47% | -5%
Cc1csc(NC(=O)COc2ccc3c(C)cc(=O)oc3c2)n1 | 0.0% | 4 | -19% | -14%
COCCOC(=O)C1=C(C)NC(=S)NC1/C=C/c1ccccc1 (stereo not given) | 0.0% | -20 | -13% | 4%
COc1ccc(OCc2cc(C(=O)N(C)CCC3CCOCC3)no2)c(Cl)c1 | 1.5% | x | 0% | -56%
CN(CC1CCCO1)S(=O)(=O)c1ccc(C(=O)Nc2ccc(S(N)(=O)=O)cc2)cc1 (stereo not given) | -2.1% | x | -13% | -4%
CCC1(c2ccccc2)NC(=O)N(CC(=O)Nc2cc(C(F)(F)F)ccc2N2CCCC2)C1=O (stereo not given) | -4.4% | x | 0% | x
O=C(Nc1nc2cc3c(cc2s1)OCCO3)c1cccs1 | -0.6% | -4 | -8% | u
O=c1cc(CSc2nnnn2-c2ccccc2)[nH]c2[nH]n(-c3ccccc3)c(=O)c12 | -0.2% | -11 | -10% | -4%
O=C(CN1CCN(Cc2ccccc2)CC1)NNC(=O)c1ccccc1 | -4.8% | x | -8% | x
C[C@H](NC(=O)C1(c2ccccc2)CCN(C(=O)OC(C)(C)C)CC1)C(=O)N[C@@H](C(=O)O)c1ccccc1 | 1.4% | x | 10% | -2%
COc1cccc(CC(=O)NCC2COc3ccccc3O2)c1OC (stereo not given) | 1.1% | x | 1% | -7%
COC(=O)c1sc(=S)n(-c2ccccc2)c1N | -1.8% | -7 | 8% | -19%
O=C1CCCc2cc3c(cc21)CC1(C3)Cc2cc3c(cc2C1)C(=O)CCC3 | 9.1% | -11 | -14% | 20%
Cn1c(SCc2cccc(Br)c2)nnc1-c1ccccn1 | -2.6% | -2 | 10% | -18%
O=c1[nH]c(CSc2ccccc2)nc2c1oc1ccccc12 | -0.2% | 8 | 19% | -22%
CC(=O)NCCc1nc2ccccc2n1CCOc1ccccc1C | 0.0% | -8 | 15% | -10%
CSc1nc(NC(C)=O)nc(C)c1Br | 2.9% | -11 | -1% | -10%
O=C(Nc1nc2c(s1)CCCC2)c1ccc(Br)o1 | 1.9% | 0 | -2% | -6%
COc1ccc(C(CNC(=O)c2cc(S(=O)(=O)NCc3ccco3)ccc2C)N(C)C)cc1 (stereo not given) | 3.0% | x | 19% | x
CCCCN1C(=N)N([C@@H](C)CN2CCC[C@H]2CN2C(N)=NC[C@H]2CC(C)C)C[C@H]1Cc1ccccc1 | 0.9% | x | 2% | x
CCNC(=O)NC(=O)CSc1ccc(NC(C)=O)cc1 | -0.1% | 8 | 0% | -6%
CS(=O)(=O)N(CC(=O)N1CCc2ccccc2C1)Cc1ccccc1 | -1.8% | 4 | 22% | 1%
O=[N+]([O-])c1ccc(/C=N/Nc2nc3ccccc3o2)cc1 | -2.3% | x | -9% | -51%
COc1cccc(NC(=O)Cn2c(=O)n(CCCC(=O)NCc3ccco3)c(=O)c3ccccc32)c1 | 0.8% | -2 | 1% | -3%
O=C(COC(=O)c1ccccc1)Nc1cccc(S(=O)(=O)NC2=NCCCCC2)c1 | -1.3% | -4 | 1% | -1%
Cc1ccc(OCCC(=O)N2CCN(c3ccc(O)cc3)CC2)cc1 | 0.2% | -6 | -12% | 12%
C=CCn1c(O)c(N=O)c2ccccc21 | -2.6% | 1 | -5% | -5%
Cc1ccc(S(=O)(=O)NC2CC(C)(C)N(O)C(C)(C)C2)cc1 | 0.0% | x | 7% | x
CCOc1cc(C2C(C(=O)c3ccco3)=C(O)C(=O)N2Cc2ccccc2)ccc1O (stereo not given) | -0.7% | x | -3% | -9%
C=CCNC(=S)NCC | 0.1% | 7 | 1% | -7%
C=CCn1c(=O)c2ccc(C(=O)NCc3ccccc3)cc2n(Cc2cccc(Cl)c2)c1=O | 0.0% | 7 | -10% | -14%
CCN(CC)CCN(Cc1cc2cc3c(cc2[nH]c1=O)OCCO3)C(=S)NCCCN(C)C | -2.9% | x | 29% | -5%
Cc1ccccc1-c1nnc(CN2CCN(C(=O)c3ccco3)CC2)o1 | 1.1% | x | -3% | 0%
COC(=O)C1=C(N)Oc2cc(C)n(Cc3ccccc3)c(=O)c2C1c1ccccc1 (stereo not given) | -1.2% | 0 | -12% | -3%
CCOc1ccc(Oc2ccc(Cl)cc2N)cc1 | -0.1% | -2 | 12% | -9%
COc1ccc(N2CCN(c3nc4ccccc4nc3NS(=O)(=O)c3ccccc3)CC2)cc1 | -0.9% | 0 | u | -22%
O=C1CC(c2cccs2)Sc2nc3ccccc3n21 (stereo not given) | 2.0% | -17 | 1% | -50%
O=C(Cn1cncn1)NCc1cc(F)ccc1F | 1.3% | 3 | 18% | -3%
O=C(c1ccc(-n2ccnc2)cc1)N1CCCC(CO)(Cc2cccc(Cl)c2)C1 (stereo not given) | 4.0% | x | -9% | -3%
O=[N+]([O-])c1ccccc1OCCCNCc1ccccc1 | 3.0% | -1 | 4% | 0%
Cc1cc(C)c(S(=O)(=O)N(C2=NCCS2)S(=O)(=O)c2c(C)cc(C)cc2C)c(C)c1 | 0.3% | -4 | 2% | -5%
CCC(=O)N1CCc2cc(S(=O)(=O)CCC(=O)Nc3ccc(C)c(F)c3)ccc21 | -3.7% | 3 | -6% | 2%
CC(=O)N1CCC2(CC1)C(C#N)=C(N)Oc1n[nH]c(CSc3ccc(C)cc3)c12 | -5.1% | 5 | 14% | -9%
CS(=O)(=O)c1sc2nc(-c3ccccc3)cc(-c3ccccc3)c2c1N | u | -3 | u | -4%
O=[N+]([O-])c1c(C(Cl)Cl)nn(-c2ccccc2)c1N1CCOCC1 | 0.1% | -2 | 1% | -5%
N#Cc1c(-c2cccc(Br)c2)cc(-c2cccnc2)nc1N | u | 11 | -26% | 16%
N#Cc1c(/N=C/c2ccco2)sc2c1CCC2 | -0.4% | -3 | 12% | -4%
CC(C)CC(=O)NC(C)C(c1cccs1)N1CCOCC1 (stereo not given) | -0.5% | 1 | 0% | 1%
O=C(Cc1cccs1)Nc1nnc(CCc2ccccc2)s1 | 0.0% | 1 | 8% | -3%
CN(C)c1nc2c(c(=O)[nH]c(=O)n2C)n1CCOc1ccccc1 | 1.1% | x | 5% | -12%
Cc1ccc(N2C(=O)c3cccc(Oc4ccc(Cl)cc4)c3C2=O)c(C)c1 | -0.7% | -5 | 7% | -8%

17 entries from above, sorted by molecular weight, highest first.
mol | Rango-impB inh | GLA inh pH 4.5 | Rango release inh | miR-21 reporter
COc1cccc(NC(=O)Cn2c(=O)n(CCCC(=O)NCc3ccco3)c(=O)c3ccccc32)c1 | 0.8% | -2 | 1% | -3%
CCN(CC)CCN(Cc1cc2cc3c(cc2[nH]c1=O)OCCO3)C(=S)NCCCN(C)C | -2.9% | x | 29% | -5%
C=CCn1c(=O)c2ccc(C(=O)NCc3ccccc3)cc2n(Cc2cccc(Cl)c2)c1=O | 0.0% | 7 | -10% | -14%
CC(=O)N1CCC2(CC1)C(C#N)=C(N)Oc1n[nH]c(CSc3ccc(C)cc3)c12 | -5.1% | 5 | 14% | -9%
COC(=O)C1=C(N)Oc2cc(C)n(Cc3ccccc3)c(=O)c2C1c1ccccc1 (stereo not given) | -1.2% | 0 | -12% | -3%
Cc1ccc(N2C(=O)c3cccc(Oc4ccc(Cl)cc4)c3C2=O)c(C)c1 | -0.7% | -5 | 7% | -8%
CS(=O)(=O)N(CC(=O)N1CCc2ccccc2C1)Cc1ccccc1 | -1.8% | 4 | 22% | 1%
O=[N+]([O-])c1c(C(Cl)Cl)nn(-c2ccccc2)c1N1CCOCC1 | 0.1% | -2 | 1% | -5%
N#Cc1c(-c2cccc(Br)c2)cc(-c2cccnc2)nc1N | u | 11 | -26% | 16%
Cc1ccc(OCCC(=O)N2CCN(c3ccc(O)cc3)CC2)cc1 | 0.2% | -6 | -12% | 12%
CN(C)c1nc2c(c(=O)[nH]c(=O)n2C)n1CCOc1ccccc1 | 1.1% | x | 5% | -12%
Cc1ccc(S(=O)(=O)NC2CC(C)(C)N(O)C(C)(C)C2)cc1 | 0.0% | x | 7% | x
CC(C)CC(=O)NC(C)C(c1cccs1)N1CCOCC1 (stereo not given) | -0.5% | 1 | 0% | 1%
O=C1CC(c2cccs2)Sc2nc3ccccc3n21 (stereo not given) | 2.0% | -17 | 1% | -50%
O=[N+]([O-])c1ccc(/C=N/Nc2nc3ccccc3o2)cc1 | -2.3% | x | -9% | -51%
CCOc1ccc(Oc2ccc(Cl)cc2N)cc1 | -0.1% | -2 | 12% | -9%
N#Cc1c(/N=C/c2ccco2)sc2c1CCC2 | -0.4% | -3 | 12% | -4%

Exported with values under each structure: entries from further up.
Values run as follows: Rango-impB inh, GLA inh pH 4.5, Rango release inh, miR-21 reporter
C=CCn1c(=O)c2ccc(C(=O)NCc3ccccc3)cc2n(Cc2cccc(Cl)c2)c1=O
 : 0.0%, 7, -10%, -14%
CCN(CC)CCN(Cc1cc2cc3c(cc2[nH]c1=O)OCCO3)C(=S)NCCCN(C)C
 : -2.9%, x, 29%, -5%

(more compounds)
mol | Rango-impB inh | GLA inh pH 4.5 | Rango release inh | miR-21 reporter
COc1cc2c(cc1OC)CN(C(=O)c1cc(S(=O)(=O)N3CCCCC3)ccc1Cl)CC2 | 0.5% | x | 2% | 1%
COc1ccc(OC)c(NC(=O)NNC(=O)COc2ccc([N+](=O)[O-])cc2)c1 | 2.2% | x | 16% | -1%
O=C(Cn1nnc(-c2ccccc2)n1)N1CCN(c2ccc(F)cc2)CC1 | 0.1% | -8 | 0% | -1%
O=c1nc(/C=C/c2ccc(-c3ccc(F)cc3)o2)cc(C(F)(F)F)[nH]1 | x | -2 | x | 18%
Cc1cc2oc(C(=O)N(Cc3ccccc3)C3CCS(=O)(=O)C3)c(C)c2cc1C (stereo not given) | 3.8% | x | 2% | -1%
O=C(CSc1ncc(-c2ccc(F)cc2)[nH]1)Nc1cccc(O)c1 | 0.1% | -11 | -12% | -7%
Cn1ccnc1SCc1cc(=O)[nH]c2ccccc12 | -1.5% | -4 | 14% | -19%
CCOC(=O)CC1ON(C)C(=O)N1c1ccc([N+](=O)[O-])cc1 (stereo not given) | -3.2% | 4 | -21% | -2%
CCOC(=O)c1sc(NC(NC(=O)c2ccco2)(C(=O)OC)C(F)(F)F)nc1C (stereo not given) | 1.5% | -8 | 9% | -12%
COc1ccccc1N1CCN(S(=O)(=O)c2ccc(Cl)s2)CC1 | 0.0% | -6 | -2% | 0%
OC1(c2cccnc2)CCN(Cc2nnnn2Cc2ccccc2)CC1 | 2.3% | 3 | -13% | -1%
O=C(CN1CCN(S(=O)(=O)c2ccccc2F)CC1)NC1CCCC1 | 0.4% | 11 | -5% | 1%

Compound activity deposited in PubChem by National Center for Advancing Translational Sciences (NCATS).
